Screens: PubChem BioAssay, ICCB-Longwood Screening Facility, Harvard Medical School
Mtb MbtI inh: MbtI salicylate synthase inhibition; P9WFX0; purified MbtI enzyme, fluorescence intensity read-out; inhibition, %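 (about 17 µg/mL by stock and volumes)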; 0.89% of 100,000 active;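 active means above 50% in both replicates, above 80% if mildly self-fluorescent; inactive means the rest, strongly fluorescent compounds included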;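 further: 0% = mean of negative and 100% = mean of positive controls; one replicate is shown; some compounds called inactive have numbers as strong as hits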
Target sequence (P9WFX0 whole entry, looked up): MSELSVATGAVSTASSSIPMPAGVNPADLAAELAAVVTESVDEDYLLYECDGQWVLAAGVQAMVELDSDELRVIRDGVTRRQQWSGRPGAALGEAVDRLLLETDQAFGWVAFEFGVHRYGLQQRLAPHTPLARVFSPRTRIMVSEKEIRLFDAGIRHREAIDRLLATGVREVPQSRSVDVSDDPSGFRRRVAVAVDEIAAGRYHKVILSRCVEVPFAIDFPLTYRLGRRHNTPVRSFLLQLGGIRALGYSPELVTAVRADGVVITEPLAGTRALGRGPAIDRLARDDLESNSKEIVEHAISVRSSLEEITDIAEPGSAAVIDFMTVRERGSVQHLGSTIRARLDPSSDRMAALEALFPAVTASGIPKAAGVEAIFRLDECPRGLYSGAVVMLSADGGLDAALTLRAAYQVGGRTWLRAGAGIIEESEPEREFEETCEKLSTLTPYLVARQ
PV pol inh: inhibitors of poliovirus RNA polymerase binding and polymerization; % elongation, % (compound at 16.7 µg/mL); poliovirus polymerase elongation, fluorescence polarization; active compounds read low; 0.66% of 150,000 active; P03300; in the data active means % elongation below about 90%; further: some results filed as inactive read as strong as hits
Target sequence (P03300 1749-2209 limits assumed): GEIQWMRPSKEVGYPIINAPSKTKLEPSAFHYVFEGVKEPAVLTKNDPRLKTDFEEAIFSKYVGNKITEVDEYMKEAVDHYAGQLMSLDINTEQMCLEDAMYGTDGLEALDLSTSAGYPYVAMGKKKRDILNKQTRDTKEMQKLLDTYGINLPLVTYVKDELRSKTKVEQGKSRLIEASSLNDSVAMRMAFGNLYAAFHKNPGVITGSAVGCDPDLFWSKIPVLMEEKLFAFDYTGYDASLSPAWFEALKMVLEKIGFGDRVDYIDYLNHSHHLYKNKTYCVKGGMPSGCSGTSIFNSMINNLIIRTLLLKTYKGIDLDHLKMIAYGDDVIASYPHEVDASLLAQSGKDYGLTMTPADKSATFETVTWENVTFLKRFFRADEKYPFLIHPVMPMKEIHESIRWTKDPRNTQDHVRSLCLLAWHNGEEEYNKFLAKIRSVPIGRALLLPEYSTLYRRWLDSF
MenB inh: Mtb MenB enzyme inhibition; MenB enzyme assay, absorbance read-out; some hits fall short of the stated cut; inhibition, %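 (about 12 µg/mL by stock and volumes)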; 0.43% of 100,000 active; AID 540299;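 active means mean of two replicates above 30%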;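 further: 0% = no compound and 100% = wells with inactive enzyme; the first replicate is given; strong numbers were not always called active; inactives centre near -10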
PV pol inh intensity: further read-out of PV pol inh, marked with its call; % elongation; measured here: total intensity read-out; formula for this scale not given here;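 total fluorescence in place of polarization; lower means less elongation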
* = called active by the depositor; i = inactive; / = not tested or not shown; & = joins results of further samples. No enrichment for hits. About 1.8% of those tested had a hit in this group.

SMILES	Mtb MbtI inh	PV pol inh	PV pol inh intensity	MenB inh
CCN(Cc1ccncc1)C(=O)c1cc2c(C)nn(-c3ccc(Cl)cc3)c2s1	-5	103	106	/
CCn1cc(C(=O)N(Cc2nc3ccccc3c(=O)[nH]2)C(C)C)c(=O)c2ccc(C)nc21	24	100	104	-19
Cc1ccc2oc3oc(=O)cc(C)c3c2c1	9	100	100	-4
CC(C)c1ccc(C2(C#N)C(=O)Nc3ccccc32)cc1 (configuration not stated)	-1	103	106	/
COCc1nc2ccccc2n1CC(C)C	-8	100	105	9
CCCc1oc2cc(O)ccc2c(=O)c1Oc1ccccc1	-7	99	100	/
NC(=O)/C(=C\c1ccccc1O)C(N)=S	36	118	121	-48
CCN1C(=O)CSc2ccc(C(=O)NCCc3ccc(OC)c(OC)c3)cc21	-2	100	101	-8
O=C1C2CC=CCC2C(=O)N1CC(=O)N1N=C2/C(=C/c3cccs3)CCCC2C1c1cccs1 (configuration not stated)	54	99	105	-8
O=C(O)COc1nc(-c2ccccc2)sc1C(=O)O	27	99	102	10
ClCCOc1ccc(Br)cc1OCCCl	-9	103	107	/
Cc1ccc2[nH]c(=O)c(CN(CCCO)C(=O)NC3CCCCC3)cc2c1	-26	103	110	12
COc1ccccc1C(=O)COC(=O)c1ccc(CN2CCCC2=O)cc1	-6	100	108	-21
CCOc1ccccc1COC(=O)c1cccc(-n2cnnn2)c1	-63	109	111	-3
Cc1cc2oc(=O)cc(-c3cc4ccccc4o3)c2cc1O	-3	105	109	-18
Cc1cccc(Cn2c(=O)n(Cc3ccco3)c(=O)c3sc4ccccc4c32)c1	53	102	104	2
COC=Nc1c(C(=O)OC)n(Cc2ccccc2)c2ccccc12	108	101	109	-23
CC(=O)Oc1ccc(-c2ccc(C(=O)NCCc3ccccn3)cc2)cc1	-57	100	100	/
CCNC(=O)c1c(-c2c(Cl)cccc2Cl)noc1C	0	104	102	1
CCCNC(=O)CSc1nnc(-c2cccs2)o1	-68	102	109	0
CN1/C(=C\C=C(C#N)C#N)C(C)(C)c2ccccc21	8	44	239	-53
CCOc1ccc(-c2nc3ccc(Br)cc3c(C(=O)O)c2C)cc1	/	104	102	-31
CC(C)OC(=O)CCc1nc2ccccc2[nH]c1=O	/	105	107	-12
CN(c1ccc(-c2csc(NC(=O)CCCc3nc4ccccc4c(=O)[nH]3)n2)cc1)S(C)(=O)=O	-14	101	108	-14
N#Cc1c(-c2ccc(Cl)cc2)c(C#N)c2sc3ccccc3n2c1=O	4	101	106	-27
Cn1c2ccccc2c2ccccc21	i	99	108	-12
CCOC(=O)C1=C(O)CN(C)C1=O	/	100	102	-96
COC(=O)C1CC(O)CN1S(=O)(=O)c1ccc2ccccc2c1 (configuration not stated)	-2	107	107	-14
O=C(CCN1N=C(c2ccccc2)CCC1=O)N1CCC2(CC1)OCCO2	-8	99	105	-14
CCn1cnc2sc(C)c(C)c2c1=O	-2	105	105	-67
O=C(CCOc1ccccc1)Nc1nc2cc3c(cc2s1)OCO3	1	97	103	-17
CCOc1ccc(N2C(=O)CC(N(CCc3ccccc3)C(C)=O)C2=O)cc1 (configuration not stated)	2	101	102	-24
CCN(CC)S(=O)(=O)c1ccc(C(=O)N(Cc2ccccc2)C(C)C)cc1	-4	104	105	/
Cc1csc(=Nc2ccccc2)n1-c1ccccc1	-12	105	101	-27
Cc1ccc(-c2nc3ncccc3o2)cc1NC(=S)NC(=O)c1oc2ccccc2c1C	-10	100	103	-7
Cn1c(CS(=O)(=O)c2ccccc2)c(C#N)c2ccccc21	/	99	95	-14
O=C1c2ccccc2C(=O)N1Cc1cc(Cl)c2cccnc2c1O	-12	100	101	-17
CCCCCCCCCCCCCCC[C@@H](O)[C@H](CO)NC(=O)CCCCCCC	-14	105&101	103&103	-2
COc1ccc(N(C(=O)C(C)C)S(=O)(=O)c2cccc3cccnc23)cc1	-2	103	103	-19
Cn1c(Cc2ccccc2)nnc1SC1CCOC1=O (configuration not stated)	-8	106	99	-2

Next part, overlapping the part above by 5 compounds.
SMILES	Mtb MbtI inh	PV pol inh	PV pol inh intensity	MenB inh
Cn1c(CS(=O)(=O)c2ccccc2)c(C#N)c2ccccc21	/	99	95	-14
O=C1c2ccccc2C(=O)N1Cc1cc(Cl)c2cccnc2c1O	-12	100	101	-17
CCCCCCCCCCCCCCC[C@@H](O)[C@H](CO)NC(=O)CCCCCCC	-14	105&101	103&103	-2
COc1ccc(N(C(=O)C(C)C)S(=O)(=O)c2cccc3cccnc23)cc1	-2	103	103	-19
Cn1c(Cc2ccccc2)nnc1SC1CCOC1=O (configuration not stated)	-8	106	99	-2
CN(C(=O)c1cccc(S(=O)(=O)N(C)C)c1)C1CCCCC1	11	106	104	7
O=C1c2cccnc2C(=O)N1CCc1ccc(S(=O)(=O)N2CCCCC2)cc1	-9	104	104	0
O=C(Nc1cccnc1)N(c1ccccc1)c1ccccc1	-1	106	100	-27
O=C(CN1CCC(NC(=O)c2ccccc2)CC1)NCc1ccccc1F	-3	100	102	19
CC1=CC(=C2C(=O)c3ccccc3C2=O)C=C(C)N1CCO	1	99	104	-4
Cc1ccc(S(=O)(=O)N(CCO)c2cc3c(s2)CCCC3)cc1	/	102	105	-6
O=C(NNc1ccnc2cc(Cl)ccc12)C1CCCCC1	-2	105	107	-21
CC(C)OC(=O)Cn1c2ccccc2c2nc3ccccc3nc21	-12	102	96	-23
CC1=NNC(=O)/C1=C/C1CC=CCC1 (configuration not stated)	14	97	98	-9
CS(=O)(=O)/C(C#N)=C/c1cccn1-c1ccc(OC(F)(F)F)cc1	-6	108	116	-44
CCn1c(=O)cc(OCC(=O)NCCCN2CCN(c3cccc(Cl)c3)CC2)c2ccccc21	-4	101	103	-8
CC1CCCC(C)N1C(=O)CSc1nc(N)c(-c2ccccc2)c(=O)[nH]1 (configuration not stated)	3	102	102	-10
COc1ccc(CCNC(=O)c2ccc(S(=O)(=O)N3CCCC3)cc2)cc1	-14	106	114	-24
O=C1c2ccccc2C(=O)N1CCC(c1ccccc1)c1ccco1 (configuration not stated)	-14	102	104	-18
CC1CCCCN1C(=O)c1cc(-c2ccc(F)cc2)no1 (configuration not stated)	5	102	103	3
O=C(Nc1cc(C(F)(F)F)cc(C(F)(F)F)c1)C1CC1	-8	101	102	-20
CCN(CC)C(=O)Oc1cc2c(-c3cc4cccc(OC)c4o3)cc(=O)oc2cc1C	-8	103	109	-21
CCN1CCN(C(=O)CCCN2C(=O)c3ccccc3Sc3ncccc32)CC1	3	100	98	14
CCCOC(=O)C(C)Sc1n[nH]c(=O)[nH]c1=O (configuration not stated)	12	95	104	-3
CCOC(=O)C1CCCN(CC(O)COc2ccc(OC)cc2C(C)(C)C)C1 (configuration not stated)	-8	97	96	2
O=C1c2ccccc2C(=O)N1C1c2ccccc2Oc2ccccc21	/	107	107	-22
CCOC(=O)C1(C(=O)OCC)CCC1	-1	97	98	16
CC1Sc2ccc(C(=O)Nc3ccc(N4CCOCC4)cc3)cc2NC1=O (configuration not stated)	-4	102	101	-7
O=c1ccc(S(=O)(=O)N2CCCC2)cn1Cc1coc(-c2ccccc2)n1	9	103	109	-14
CCc1ccc(CN(C)C(=O)C2=CC=CN3CCS(=O)(=O)N=C23)cc1	49	104	107	-9
COc1ccccc1-n1nnnc1SC(C)c1nnc(-c2ccc(F)cc2)o1 (configuration not stated)	-2	94	103	-14
CCc1ccc(NC(=O)c2cc(C)no2)cc1	-2	102	106	-3
Cc1c(N2C(=O)SC(CC(=O)O)C2=O)c(=O)n(-c2ccccc2)n1C (configuration not stated)	-14	102	108	-1
O=C(CC1c2ccccc2Oc2ccccc21)Nc1ccccn1	/	105	108	-9
Cn1cc(S(=O)(=O)N2CCc3ccccc32)cc1C(=O)N1CCCCCC1	-2	101	102	-9
Cc1onc(-c2ccccc2)c1-c1ccnn1C(=O)c1ccc(Cl)cc1	-4	102	108	-2
O=S(=O)(NC1CCCc2ccccc21)c1ccc(-n2cccn2)cc1 (configuration not stated)	2	101	98	-4
COc1ccccc1OC/C(O)=C(\C#N)c1nc2ccccc2[nH]1	13	102	102	-4
COc1cc(CN2CC=C(c3ccc(F)cc3)CC2)cc2c1OCO2	-11	100	103	-18
Cc1ccc(-c2nsc(SCC(=O)c3ccc(Cl)cc3)n2)cc1	-5	99	99	10
CCCn1c(=S)[nH]c2sc(CC)cc2c1=O	3	103	107	-10
CCCCNC(=O)N1CCN(c2ccnc3cc(Cl)ccc23)CC1	-7	102	94	-32
NC(=O)Cc1nc(-c2ccc(Br)cc2)cs1	/	110	100	-28
Cc1ccc(CCC(=O)O)o1	/	97	109	-21
CC(C)c1ccccc1NC(=O)COc1ccc(Br)cc1	-10	101	106	/
CCSc1nnc2c(=O)[nH]c(=O)[nH]c2n1	-4	103	100	-2
COc1ccc(C=NCCN2Cc3ccccc3C2=O)cc1OC	/	99	102	-15
O=C(O)c1cc2c(s1)-c1ccccc1CC2	104	99	99	-17
O=C(CCc1nnc2n(CCc3ccccc3)c(=O)c3ccccc3n12)NCCN1CCOCC1	6	102	103	5
CC(=O)Nc1cccc(Oc2ccc3c(c2)C(=O)N(c2cccc(Cl)c2)C3=O)c1	-3	102	106	-16
CSc1nc(NC(=O)NS(=O)(=O)Cc2ccc(Cl)cc2Cl)nc(N2CCCC2)n1	-3	99	93	-25
CC(C)/C=C1\CC/C(=C\c2ccc(Cl)cc2)C1=O	6	99	103	-5
CCCn1c(C(O)c2ccc(C(C)C)cc2)nc2ccccc21 (configuration not stated)	-9	104	98	-23
NS(=O)(=O)c1ccc(CNC(=O)c2cccc(S(=O)(=O)NCC(F)(F)F)c2)cc1	-39	103	98	-18
Cc1cc(=S)oc2ccccc12	14	99	98	-172
COc1cc2c(cc1OC)C(COc1cc(C)cc(C)c1)N(C(C)=O)CC2 (configuration not stated)	11	99	98	-30
O=C(CCC(=O)Nc1ccccc1)NN=C1CCCCC1	-6	99	103	14
COc1ccc(C2CC(=O)C=C(NCc3ccccc3)C2)cc1 (configuration not stated)	22	102	100	2
CC(=O)N1c2ccccc2NC2=C(C(=O)CCC2)C1c1ccccc1 (configuration not stated)	7	101	102	-16
Cc1[nH]c(C)c(Cl)c(=O)c1Cl	-15	98	102	0
CCN(CC)S(=O)(=O)c1ccc2oc(SCC3CN=C(c4ccc(OC)cc4)S3)nc2c1 (configuration not stated)	21	96	95	-26
COc1cccc(NC(=O)Cc2ccc3c(c2)OCCO3)c1	-1	105	104	0
COc1ccc(-c2nc(Cn3c(SCc4cc(C)ccc4C)nc4ccncc43)c(C)o2)cc1	2	102	103	-30
N#CCn1ccn(-c2ccc3c(c2)OCO3)c(=O)c1=O	-3	101	106	-4
COc1cccc(N2CCN(CC(=O)C34CC5CC(CC(C5)C3)C4)CC2)c1	-12	102	105	14

Profiles, quoted from the list. Order of screens: Mtb MbtI inh | PV pol inh | PV pol inh intensity | MenB inh
`CC(=O)Nc1cccc(Oc2ccc3c(c2)C(=O)N(c2cccc(Cl)c2)C3=O)c1` across the screens: -3 | 102 | 106 | -16
`CSc1nc(NC(=O)NS(=O)(=O)Cc2ccc(Cl)cc2Cl)nc(N2CCCC2)n1` across the screens: -3 | 99 | 93 | -25
`O=C(CCC(=O)Nc1ccccc1)NN=C1CCCCC1` across the screens: -6 | 99 | 103 | 14
`NS(=O)(=O)c1ccc(CNC(=O)c2cccc(S(=O)(=O)NCC(F)(F)F)c2)cc1` across the screens: -39 | 103 | 98 | -18
`N#CCn1ccn(-c2ccc3c(c2)OCO3)c(=O)c1=O` across the screens: -3 | 101 | 106 | -4

New compounds follow.
SMILES	Mtb MbtI inh	PV pol inh	PV pol inh intensity	MenB inh
O=C(NC1CCOC1=O)c1ccc(COc2ccc3ccccc3c2)o1 (configuration not stated)	10	104	101	-3
COc1ccc(C2OC(=O)Cc3cc(OC)c(OC)cc32)cc1OC (configuration not stated)	-6	100	102	-20
Cc1ccc(C(=O)N2CCc3ccccc32)cc1	0	103	106	12
Cc1ccc(OCc2nnc(SCC(=O)NC3CCCCC3)n2C(C)C)c(C)c1	-3	100	101	1
Cc1ccc(C)n1C(Cc1ccccc1)C(=O)O (configuration not stated)	/	94	100	-11
N#CCCNc1ccccc1C(=O)O	117	98	101	8
Cc1nc2cccnc2n1-c1ccc(CC(=O)NCCN2CCOCC2)cc1	7	100	104	-2
CCOC(=O)CSc1nc2sccn2c1C=Nc1cc(Cl)cc(Cl)c1	-1	104	102	-2
c1ccc(-c2csc(Cc3c[nH]c4ccccc34)n2)cc1	-16	103	107	-31
O=S(=O)(NC(=S)NC1CCCCC1)c1ccccc1	7	98	101	-42
Cc1cc2c3c([nH]c2cc1S(=O)(=O)N(Cc1ccco1)C1CCCCC1)CCCC3=O	-8	103	101	-35
CC(C)CCn1c(=O)c2ccccc2n2c(CN(C)Cc3ccccc3)nnc12	-7	100	93	-29
C=CCNC(=O)C(C)Oc1ccccc1 (configuration not stated)	-12	102	103	-47
O=C(NC1CCCC1)c1cc(-c2ccccc2O)no1	-7	102	103	-4
O=C1c2ccccc2NC(c2ccccc2)N1NS(=O)(=O)c1ccccc1 (configuration not stated)	119	105	101	2
Cc1cc(C)nc(Nc2nc3ccccc3c(=O)[nH]2)n1	-37	100	104	-1
N#CC(C#N)=CNc1cc(-c2ccc(Cl)cc2)sc1C(N)=O	-36	100	98	-19
Cc1ccc(NC(=O)Nc2ccc(SC(F)F)cc2)cc1	-5	101	98	-34
C=CCC1C(=O)N(S(=O)(=O)c2ccc(Cl)cc2)N=C1CCC (configuration not stated)	-5	114	107	-32
